# Screening results from PubChem BioAssay.
# StopGo RLuc: FMDV 2A StopGo reporter, Renilla signal; HEK cells with a luciferase reporter of 2A StopGo recoding; Potency, µM (highest dose often 57.5 µM), inactives show at the highest dose signal change, negative = less light; 120,000 compounds, 0.32% hits; active means well fitted falling curve with a large enough effect; inconclusive means small, poorly fitted or top-dose-only effect; inactive means no such curve, though single readings can be large or run the other way; further: nearly all actives have a fitted effect of over 55% in size; overnight with compound
# StopGo FLuc: lowers the firefly signal of an FMDV 2A StopGo reporter. HEK cells with a luciferase reporter of 2A StopGo recoding. Potency, µM (series often up to 57.5 µM), without a hit: at the top dose signal change, negative = less light. 120,000 compounds, 0.23% hits; active = well fitted falling curve with a large enough effect; inconclusive = small, poorly fitted or top-dose-only effect; inactive = no such curve, though single readings can be large or run the other way; further: nearly all actives have a fitted effect of over 60% in size; overnight with compound
# An asterisk follows results filed as active; ? = inconclusive; & = joins results of further samples; [ ] = another dose, or the depositor's remark. On the % scale 0 is the no-effect control and ±100 the full control effect; potency means the concentration at half of the fitted maximal effect. Some of the compounds tested; count on the stated rates, not on these rows.
SMILES	StopGo RLuc	StopGo FLuc
Cc1cc(F)ccc1Nc1nc2ccccc2n2nnnc12	17%	0%
CSc1ncc2c(n1)-c1ccccc1N(Cc1ccccc1C)S2(=O)=O	?	?
COc1ccc(/C=C(\NC(=O)c2ccccc2)C(=O)O)cc1	11%	6%
Cc1nnc(SCC(=O)N(C)CCOc2ccc(Br)cc2)n1C	-1%	-4%
O=C(CCC1CCCO1)NC1CCCCC1 (configuration not stated)	8%	7%
C/C(=N\NC(=O)c1cccs1)c1ccc(-c2ccccc2)cc1	14%	150%[activator]
O=C(Nc1cccc(Cl)c1)c1ccc2ccccc2n1	18%	233%[activator]
CCCCOc1cccc(N)c1	2%	2%
O=C(Nc1ccccc1)c1ccc2c(O)c(S(=O)(=O)c3ccc(Cl)cc3)c(=O)[nH]c2c1	-13%	-3%
COc1ccc2[nH]c(C(=O)NCc3ccc(C)o3)cc2c1	-28%	-16%
O=C(OCc1ccc(F)cc1F)c1cccc([N+](=O)[O-])c1	30%	181%[activator]
COC(=O)c1cccc(NC(=O)NCCn2c(-c3ccc(F)cc3)nc3ccccc32)c1	2%	25%
CC(=O)N1CCN(c2c([N+](=O)[O-])cnc3ccc(Br)cc23)CC1	-11%	-10%
CCc1ccc(Cn2nnc(C(=O)Nc3ccc(C)cc3)c2N)cc1	18%	83%[activator]
COc1ccccc1CNC(=O)CCc1c(C)nc2c(c(C)nn2-c2ccc(C)c(C)c2)c1C	-10%	-4%
O=C(O)COCC(=O)N1CCOCC1	-3%	6%
Nc1nc(N)nc(-c2ccncc2)n1	-5%	15%
Cc1cccc(CNC(=O)C(=O)Nc2ccccc2C)c1	6%	46%[activator]
N#Cc1ccccc1NS(=O)(=O)c1ccc(N2CCCCS2(=O)=O)cc1	0%	-5%
COc1ccc(OC)c(NC(=O)Cn2ccn(-c3ccc(F)cc3)c(=O)c2=O)c1	-12%	-24%

# More entries
SMILES	StopGo RLuc	StopGo FLuc
CN(Cc1cnn(C)c1)C(=O)C1CC(=O)N(c2ccc3c(c2)CCC3)C1 (configuration not stated)	-6%	2%
CCCNc1ccc(-c2nc(-c3ccco3)no2)cc1[N+](=O)[O-]	-9%	92%[activator]
O=C(Nc1ccccc1)C(=O)N1CCN(C(=O)c2cc3ccccc3[nH]2)CC1	-6%	3%
CCOc1ccc(NC(=O)c2nn(C)c(=O)c3ccccc23)cc1S(=O)(=O)N1CCCC1	27%	-6%
COc1ccc2occ(CC(=O)Nc3ccc(S(=O)(=O)Nc4nc(C)cc(C)n4)cc3)c2c1	19%	-12%
C=C(C)COc1cccc(N)c1	2%	0%
O=C(O)c1cc(NC(=O)c2ccc(Cl)s2)cc(C(=O)O)c1	-12%	-14%
COc1ccc(/C=C2\N=C(SC)SC2=O)c(OC)c1	10%	-1%
Cc1cccc(N2CCN(C(c3ccccc3)c3nnc(-c4ccccc4F)o3)CC2)c1C (configuration not stated)	19%	5%
Cc1[nH]c2ccccc2c1C1c2ccccc2C(=O)N1CCC(=O)N1CCN(C)CC1 (configuration not stated)	6%	-19%
O=C(Nc1ccc2c(c1)OCO2)c1cc2c(s1)-c1ccccc1OC2	-4%	62%[activator]
Cc1cccc(Cc2c(C)nc3nc(SCC(=O)NCc4ccccc4)nn3c2C)c1	66%[activator]	53%[activator]
CCONC(=O)c1cc2cc(OC)cc(OC)c2[nH]1	39%[activator]	18%
CCSc1nc(C(C)(C)C)cc(C(F)(F)F)c1C#N	92%[activator]	58%[activator]
C/C(=N\NC(N)=S)C(=O)O	5%	13%
CCOC(=O)C1=C(C)N(C)C(=O)N(C)C1c1c(F)cccc1Cl (configuration not stated)	-10%	0%
Cc1cccc(OCCSc2nc3ccc(NC(=O)COc4ccccc4C)cc3s2)c1	9%	-7%
C#CCNC(=O)c1cc(=O)[nH]c2ccc(S(=O)(=O)N(CC)CC)cc12	-11%	5%
CCCCn1c2ccc(F)cc2c2nnc(SCCN3CCCCC3)nc21	-4%	-5%
COC(=O)c1cc(NC(=O)c2cnc(SC)nc2-c2ccccc2)cc(C(=O)OC)c1	23%&2%	8%&-20%

# Look-ups from the results shown:
# `CCCCn1c2ccc(F)cc2c2nnc(SCCN3CCCCC3)nc21` @ StopGo FLuc = -5%
# `CCONC(=O)c1cc2cc(OC)cc(OC)c2[nH]1` @ StopGo FLuc = 18%

# (next part)
SMILES	StopGo RLuc	StopGo FLuc
COc1ccc(-n2nnnc2C2CCN(S(=O)(=O)c3ccc(F)cc3Cl)CC2)cc1	-1%&-5%	-1%&-5%
CCCCCCOc1ccccc1/C=C(\C#N)C(=O)c1ccccc1	14%	18%
CCOC(=O)N1CCN(C(=O)c2cc(-c3ccncc3)nc3ccccc23)CC1	47%[activator]	44%[activator]
CC(CCc1ccco1)NC(=O)CCc1nnc2ccc(N3CCC4(CC3)OCCO4)nn12 (configuration not stated)	-8%	-13%
O=C(NCc1cccs1)C12CC3CC(CC(O)(C3)C1)C2	23%[1.06 µM]	3%
C[N+](C)(C)CCOC(=O)C(O)(c1ccccc1)c1ccccc1	2%	-13%[11.5 µM]
CCSc1nc(=O)c2c(n1C)NC(=O)CC2c1cc(C)ccc1C (configuration not stated)	0%	2%
Cc1ccccc1NC(=O)c1c(NC(=O)Cc2ccccc2)sc2c1CCC2	-3%	6%
CC(O)CCCCn1c(=O)c2c(ncn2C)n(C)c1=O (configuration not stated)	-1%	-15%[11.5 µM]
CCc1ccc(CNC(=O)c2cc3cc4ccc(OC)cc4nc3o2)cc1	-5%	-5%
CCOC(=O)c1c(C)oc2nc(C)nc(NCCc3ccc(C)cc3)c12	-5%	-2%
CCCC(=O)NC1CCN(Cc2nnnn2-c2ccccc2)CC1	-12%	-9%
COc1ccc(Nc2nc(N3CCCC3)c3cnn(C)c3n2)c(OC)c1	44%[activator]	0%
O=C(O)c1cccc(-n2cnc3cccnc32)c1	0%	4%
Cc1cc(C)cc(OCC(=O)N2CCC(c3nc4ccccc4o3)CC2)c1	1%	?
COc1ccc(-c2csc(Nc3ccccc3)n2)cc1	-17%	131%[activator]
CN1CCN(NC(=S)NCCc2ccccc2)CC1	26%	64%[activator]
CC(C)(C)OC(=O)N1CCC(c2c(C(=O)NC3CCCCC3)cnn2-c2cccc(F)c2)CC1	-13%	-4%
Cc1ccc(OCC(=O)Nc2ccc3oc(=O)ccc3c2)cc1C	6%	0%
CCOc1ccc(CN(C(=O)c2cc(=O)c3cc(Cl)ccc3o2)C2CCS(=O)(=O)C2)cc1 (configuration not stated)	10%&17%	0%&-8%

# Continuation.
SMILES	StopGo RLuc	StopGo FLuc
Cc1c(Cl)cccc1NC(=O)c1cc(=O)[nH]c2ccc(S(=O)(=O)N3CCOCC3)cc12	-3%	38%
NC(N)=N/N=C/c1ccccc1	20%	40%[activator]
Cc1ccc(NC(=O)CSc2nc3c(oc4ccccc43)c(=O)n2Cc2ccco2)cc1F	-9%	-21%
Cc1ccccc1C(=O)Nc1sc2c(c1C(=O)N1CCC(C)CC1)CCCC2	198%[activator]	-6%
Cc1cc(N2C(=O)C(O)=C(C(=O)c3cc4ccccc4o3)C2c2ccc(F)cc2)no1 (configuration not stated)	87%[activator]	0%
COc1ccc2c(c1)c(C(C(=O)O)N1CCN(CCC#N)CC1)cn2CCC(=O)O (configuration not stated)	-4%	-7%
C(=Nc1ccccc1)c1ccccc1OCc1ccccc1	25%	99%[activator]
CCC12CN3CC(C)(CN(C1)C3c1c(C)[nH]c3ccccc13)C2=O (configuration not stated)	-4%	-4%
COc1ccc(NC(=O)C2CCN(S(=O)(=O)c3cccc(-c4noc(C)n4)c3)CC2)cc1OC	-5%	0%
CCCCOc1ccc(S(=O)(=O)Nc2ccc(-c3ccc(N4CCC(C)CC4)nn3)cc2)cc1	-9%	71%[activator]
CCCC(=O)Nc1ccccc1C(=O)OC/C(=N/O)c1ccc(OC)cc1	-2%	0%
Cc1cc(F)ccc1S(=O)(=O)N(Cc1cnn(C)c1)C(C)C	-3%	9%
CCn1c(=O)n(CCC(=O)NC2(c3noc(C)n3)CCCCC2)c2ccccc21	-2%	-7%
CN(CCOC(=O)c1cccs1)Cc1ccccc1	-3%	-4%
COc1cccc(NC(=O)CCN2C(=O)c3ccccc3Sc3ncccc32)c1	9%	-11%
C=CCC(CC=C)(CNC(=O)C(=O)Nc1ccc(C)cc1)c1ccccc1	-6%	49%[activator]
O/N=C/c1ccc(-n2ccnc2)cc1	-9%[1.06 µM]	18%
CCc1nc(N2CCN(C(=O)CN3CCN(C)CC3)CC2)c(C#N)c2c1COC(C)(C)C2	-13%	-4%
CCOc1ccc(Br)cc1C1N2CC3(CC)CN1CC(CC)(C2)C3=O (configuration not stated)	-8%	-2%
COCc1cccc(C(=O)NCCC(C)C)c1	61%[activator]	136%[activator]

# Further structures
SMILES	StopGo RLuc	StopGo FLuc
Cc1ccc2oc(-c3cccc(NC(=O)c4cccs4)c3C)nc2c1	?	6%
CCNCc1ccc(-c2ccccc2Cl)o1	-15%	0%
Cc1cc(C(C)(C)C)cc(C)c1S(=O)(=O)N1CCN(C(C)c2nc3ccccc3c(=O)[nH]2)CC1 (configuration not stated)	-4%	-16%
COc1ccc(CCNS(=O)(=O)c2ccc(N3CCCCS3(=O)=O)cc2)cc1	122%[activator]	-19%
Cc1cccc(C)c1NC(=O)C1CCN(S(=O)(=O)c2cccc3nsnc23)CC1	-14%	-16%
C[C@@]12C(=O)OC(=O)[C@]1(C)C1CCC2O1	?	76%[activator][11.5 µM]
CCN(CC)CCNC(=O)C1CCCN(c2nnc(C)c3c(C)n(-c4ccc(Cl)cc4)nc23)C1 (configuration not stated)	-11%	-15%
CC(NC(=O)CSc1nc(CN2CCOCC2)nc2ccccc12)c1ccccc1 (configuration not stated)	8%	0%
Cc1ccc(NC(=O)CN2C(=O)C(c3ccc(F)cc3)=NC2(C)C)c(C)c1	-18%	0%
Cc1cccc(C(=O)N2c3ncnn3C3(CCCCC3)[C@@H]3CCCC[C@@H]32)c1	-3%	-18%
Cc1ccc(CNC(=O)C2COc3ccccc3C2)cc1 (configuration not stated)	3%	83%[activator]
CC(C)c1ccc(NC(=S)NNC(=O)C(N)=O)cc1	7%	0%
Cn1nc(C(=O)Nc2cccc(C(=O)NC3CC3)c2)c2ccccc2c1=O	45%[activator]	125%[activator]
O=C(Cn1c(=O)n(Cc2ccco2)c(=O)c2ccccc21)Nc1cccc(F)c1	19%	-14%
CC(=O)N1CCC2(CC1)Oc1ccc(Br)cc1C1CC(c3ccccn3)=NN12 (configuration not stated)	107%[activator]	41%[activator]
Cc1ccc(C)c(N2CCN(c3nc4ccccc4c4nc(-c5cccnc5)nn34)CC2)c1	-16%	-19%
O=C(CN1CCN(c2ccccc2F)CC1)Nc1ncc2c(n1)CCCC2=O	3%	10%
O=C(NC(C1CC1)C1CC1)c1cc2ccccc2oc1=O	16%	108%[activator]
N#C/C(=C/c1ccc(N(c2ccccc2)c2ccccc2)cc1)C(=O)Nc1cccc(C(F)(F)F)c1	?	?
Cc1ccc(CN2CCc3nc(N4CCN(C)CC4)ncc3C2)cc1	-15%	-23%

# The list goes on:
SMILES	StopGo RLuc	StopGo FLuc
CCOC(=O)COc1ccc2cc(-c3ccc(OC)c(OC)c3)c(=O)oc2c1	1%	1%
O=Cc1ccc(Sc2ccccc2)cc1	7%	6%
CCOc1ccc2nc(N3CCN(C(=O)CS(=O)(=O)c4ccc(F)cc4)CC3)sc2c1	?	?
CCOc1ccc(C(=O)Nc2cccc(C(=O)OCc3cc(=O)n4cc(C)sc4n3)c2)cc1	-5%	-14%
O=C(Nc1cccc(F)c1)c1cn(Cc2ccccc2)nc1-c1ccccc1	20%	-12%
Cc1nn(C(=O)c2cccc([N+](=O)[O-])c2C)c(C)c1S(=O)(=O)N1CCCCCC1	1%	-18%
CC(C)(C)NC(=O)c1cc(F)ccc1I	-6%	0%
CC(C)NC(=O)Cc1ccc(-n2c(=O)c3ccccc3n(Cc3cccc(Cl)c3)c2=O)cc1	-9%	-13%
CCOc1ccc(CNc2nc(NCc3ccc(OCC)cc3)n(C(=O)CC(C)C)n2)cc1	12%	5%
COCCn1cnc2c1c(=O)n(Cc1ccccc1)c(=O)n2CC(C)C	-5%	6%
Cc1ccc(C23CC4CC(CC(C(=O)Nc5ccc(F)cc5)(C4)C2)C3)cc1	1%	-7%
COc1ccc(NC(=O)[C@@H]2Cc3ccccc3CN2C(=O)OC(C)(C)C)cc1	27%	10%
Cc1c(NCc2nc(-c3cccs3)no2)cccc1-n1cnnn1	0%	18%
Cc1cc(C)c(Cn2c3ccccc3c3cnn(CC(=O)NCC(C)c4ccccc4)c(=O)c32)c(C)c1 (configuration not stated)	-8%	7%
N=C(N)COc1cc(Cl)ccc1Cl	-17%	-7%
CCOC(=O)C1CCCN(C(=O)c2ccc3c(c2)[nH]c(=O)c(=O)n3CC)C1 (configuration not stated)	16%	15%
CC(CNC(=O)NCc1cccs1)N1CCOCC1 (configuration not stated)	-7%	-5%
COc1cccc(NC(=O)C2CCCN2S(=O)(=O)c2ccc3nc(-c4ccccc4)[nH]c3c2)c1 (configuration not stated)	-3%	8%
Cc1cccc(OCCN)c1C	1%	1%

# Structures shown so far with a CF3 group:
SMILES	StopGo RLuc	StopGo FLuc
CCSc1nc(C(C)(C)C)cc(C(F)(F)F)c1C#N	92%[activator]	58%[activator]
N#C/C(=C/c1ccc(N(c2ccccc2)c2ccccc2)cc1)C(=O)Nc1cccc(C(F)(F)F)c1	?	?
